Screening results (PubChem BioAssay)
NPR1 antag = Natriuretic polypeptide receptor (hNpr1) antagonism - Primary qHTS | hit rate 1.6% among 76,000 | Atrial natriuretic peptide receptor 1 (Homo sapiens), P16066 | HEK293 hNpr1 GloSensor cGMP, ANP-stimulated luminescence | Potency, µM (titrated, usually from 46.3 µM), for the others: at the top dose activity change, negative = inhibition, most hits filed as inhibitors; active = well fitted inhibition curve with a large enough effect; inconclusive = small, poorly fitted or top-dose-only effect; inactive = no such curve, though single readings can be large or run the other way;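 note: nearly all actives have a fitted effect of over 60% in size; nearly all hits also lower the signal before the agonist is added; a reference antagonist and vehicle were the controls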
Target sequence (P16066 whole entry, looked up): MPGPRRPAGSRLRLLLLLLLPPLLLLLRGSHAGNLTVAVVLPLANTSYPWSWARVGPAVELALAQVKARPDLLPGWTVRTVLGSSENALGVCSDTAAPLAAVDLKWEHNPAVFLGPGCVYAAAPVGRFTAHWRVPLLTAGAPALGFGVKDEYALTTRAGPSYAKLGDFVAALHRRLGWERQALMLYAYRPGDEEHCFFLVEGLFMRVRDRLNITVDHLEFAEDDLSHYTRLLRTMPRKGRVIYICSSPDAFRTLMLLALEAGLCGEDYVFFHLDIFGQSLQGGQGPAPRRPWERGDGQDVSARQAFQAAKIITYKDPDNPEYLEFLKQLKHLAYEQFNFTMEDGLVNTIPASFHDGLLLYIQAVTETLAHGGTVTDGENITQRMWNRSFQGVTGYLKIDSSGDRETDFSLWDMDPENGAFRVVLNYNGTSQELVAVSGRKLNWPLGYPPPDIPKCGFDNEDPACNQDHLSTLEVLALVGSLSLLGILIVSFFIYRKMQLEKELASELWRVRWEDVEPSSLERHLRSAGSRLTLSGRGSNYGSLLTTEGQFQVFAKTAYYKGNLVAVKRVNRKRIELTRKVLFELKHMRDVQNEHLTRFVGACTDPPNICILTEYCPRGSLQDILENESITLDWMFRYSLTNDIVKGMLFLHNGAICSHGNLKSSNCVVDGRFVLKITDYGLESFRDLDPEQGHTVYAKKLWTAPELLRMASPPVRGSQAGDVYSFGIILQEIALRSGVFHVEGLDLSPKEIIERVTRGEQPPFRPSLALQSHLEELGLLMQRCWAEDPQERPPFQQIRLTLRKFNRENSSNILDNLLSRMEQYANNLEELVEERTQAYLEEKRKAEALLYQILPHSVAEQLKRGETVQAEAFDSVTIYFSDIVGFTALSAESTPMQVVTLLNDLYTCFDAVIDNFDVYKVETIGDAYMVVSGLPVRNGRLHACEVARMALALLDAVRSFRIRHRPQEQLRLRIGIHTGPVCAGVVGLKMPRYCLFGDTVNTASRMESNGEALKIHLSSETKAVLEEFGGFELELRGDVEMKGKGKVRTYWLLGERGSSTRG
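Compound pre-incubated 30 min at room temperature on GloSensor-loaded HEK293 cells stably carrying hNpr1 and the pGS-40F cGMP biosensor. Stimulation uses hNppA at 0.1 nM final; luminescence is taken at baseline and 20 min post-agonist.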
The depositor's hits bear a star; ? = inconclusive; [ ] = dose if it differs, or a comment. % is set by controls: 0 for no effect and ±100 for the full control effect; potency is the fitted concentration of half-maximal effect. Not all compounds are listed (hit frequency here may not be typical).

SMILES	NPR1 antag
NS(=O)(=O)c1ccc(CNc2nccc(-c3cccnc3)n2)cc1	7%
COCCNC(=O)[C@@H]1C[C@H](Oc2cccnc2)CN1C(=O)CC1CCN(C(C)=O)CC1	-9%
COc1cccc(NC(=O)N2CCCC(Cn3c(C)nc4cccnc43)C2)c1 (stereo unspecified)	-1%
O=C(c1ccc2c(c1)OCO2)N1CCN(c2nnc3ccccn23)CC1	9%
COc1cc(NC(=O)C2Cn3cccc3C(=O)N2)cc(OC)c1 (stereo unspecified)	2%
COCC[C@]1(O)CCN(C(=O)c2ccc(C#N)nc2)C[C@H]1C	-4%
COCCNC(=O)[C@@H]1C[C@H](Oc2cccnc2)CN1C(=O)c1ccc(OC)c(F)c1	0%
CC(C)c1nncn1C1CCN(S(=O)(=O)c2cccc(Cl)c2)CC1	?
CN(Cc1ccc(F)cc1)C(=O)Nc1ccc(Cl)cc1	-28%[70.6 µM]
CC(C)NC(=O)C1COC2(CCN(C(=O)c3ccc(F)cc3)CC2)N1C(=O)c1cccc(F)c1 (stereo unspecified)	8%
O=C(c1ccoc1)N1CCC(c2noc(C3CC3)n2)C1 (stereo unspecified)	-2%
CCc1noc([C@@H]2CC(F)(F)CN2C(=O)c2coc(C)n2)n1	-3%
CC(C)NC(=O)C1CN(c2ccccc2)C(=O)N1 (stereo unspecified)	0%[70.6 µM]
c1ccc(CN2CCC(N3CC(OCC4CC4)C34CCCCC4)CC2)nc1 (stereo unspecified)	2%
Cc1nc2ccccc2n1Cc1cc(C(=O)N2CCCC2)no1	-28%
O=C(NCCCN1CCCC1=O)c1ccc(-c2ncc3cnc(-c4ccccc4)cn23)cc1	-2%
CN1Cc2cccn2CC1CNC(=O)c1cnn(C)c1 (stereo unspecified)	-2%
O=C(Cn1nc2n(c1=O)CCCCC2)Nc1cccc(Cl)c1	0%
COCCn1ncc(N2CCCC(CC(=O)Nc3ccc(C)cc3)C2)cc1=O (stereo unspecified)	0%
O=C(CC[C@@H]1CNC(=O)[C@@H]2C[C@H](NCc3ccc(F)cc3)CN12)NCc1ccccc1	1%[70.6 µM]

Part of the list above, set out differently.
| mol | NPR1 antag |
| --- | --- |
| COCCn1ncc(N2CCCC(CC(=O)Nc3ccc(C)cc3)C2)cc1=O (stereo unspecified) | 0% |
| COCCNC(=O)[C@@H]1C[C@H](Oc2cccnc2)CN1C(=O)c1ccc(OC)c(F)c1 | 0% |

Individual results from above:
O=C(c1ccc2c(c1)OCO2)N1CCN(c2nnc3ccccn23)CC1 @ NPR1 antag = 9%
COCCNC(=O)[C@@H]1C[C@H](Oc2cccnc2)CN1C(=O)CC1CCN(C(C)=O)CC1 @ NPR1 antag = -9%
O=C(c1ccoc1)N1CCC(c2noc(C3CC3)n2)C1 (stereo unspecified) @ NPR1 antag = -2%

Quoted at random: 7 compounds from above, in no set order.
SMILES	NPR1 antag
COc1cc(NC(=O)C2Cn3cccc3C(=O)N2)cc(OC)c1 (stereo unspecified)	2%
CC(C)c1nncn1C1CCN(S(=O)(=O)c2cccc(Cl)c2)CC1	?
O=C(Cn1nc2n(c1=O)CCCCC2)Nc1cccc(Cl)c1	0%
Cc1nc2ccccc2n1Cc1cc(C(=O)N2CCCC2)no1	-28%
c1ccc(CN2CCC(N3CC(OCC4CC4)C34CCCCC4)CC2)nc1 (stereo unspecified)	2%
CN1Cc2cccn2CC1CNC(=O)c1cnn(C)c1 (stereo unspecified)	-2%
COCC[C@]1(O)CCN(C(=O)c2ccc(C#N)nc2)C[C@H]1C	-4%

Next section
SMILES	NPR1 antag
CS(=O)(=O)N(Cc1cccnc1)C1CN(C(=O)c2cc3ccccc3[nH]2)C1	-9%
COCc1nc(CCNC(=O)CCCc2nc(-c3ccc(C)cc3)no2)no1	-17%
Cc1ncsc1CCC(=O)N(C)Cc1csc(-c2ccccc2)n1	?
COc1ccccc1C(=O)N1CCC(Cc2nc(-c3ccc(F)cc3)no2)CC1	6.3µM*
CC(=O)N1CCCC(c2[nH]ccc2C(=O)NCc2ccc3c(c2)OCO3)C1 (stereo unspecified)	10%
Cc1ccsc1C(=O)C1CCCN(Cc2ccc(OC(C)C)c(CO)c2)C1 (stereo unspecified)	-7%
CC1(C)C(=O)N(CCOc2ccccc2)[C@H]2CN(Cc3ccc4c(c3)CCO4)C[C@H]2[S+]1(=O)[O-]	-14%
Cc1nc(C)c(C(=O)N2CCCC2c2nc(CCOCC3CC3)no2)s1 (stereo unspecified)	-3%
Cc1nn(C)cc1CN1C[C@@H]2C(=O)N(Cc3ccc4c(c3)OCO4)C(=O)[C@@H]2C1	-13%
COC(=O)N1CCC(c2nn(-c3ccc(F)cc3)c(=O)[nH]2)CC1	-1%[70.6 µM]
O=C(Cc1cccc(F)c1)Nc1cccc(-c2nnc3n2CCCC3)c1	-11%
COc1ccc(C(=O)N2C[C@@H](Oc3cccnc3)C[C@H]2C(=O)N2CCOCC2)cc1	3%
COc1cccc(NC(=O)NC[C@H]2O[C@@H](CO)[C@@H](O)[C@H]2N(C)CCc2ccccc2)c1	0%
Cc1noc(C)c1CO[C@H]1CCOC[C@H]1NC(=O)CCCc1cn[nH]c1	3%
Cc1noc(C2CC3(CCN(C(=O)COc4ccc(F)cc4)CC3)CN2C)n1 (stereo unspecified)	2%
O=C(c1cc(CC2(NCc3ccccc3F)COC2)no1)N1CCCCC1	0%[70.6 µM]
O=C1c2cccn2CC(CNS(=O)(=O)c2ccc(F)cc2)N1Cc1ccccc1 (stereo unspecified)	-11%
CCN(CC)C(=O)[C@@H]1CCCN1[C@H](Cc1ccccc1)C(=O)NC	4%[70.6 µM]
O=[S+]1([O-])NCC2(CCN(CC3CC3)C2)Nc2ccccc21 (stereo unspecified)	14%[70.6 µM]
CCc1nc2c(c(-c3ccc(Cl)cc3)n1)CN([S+](=O)([O-])c1ccc(C)cc1)CC2	3%

Arranged by formula weight (high to low): three of the compounds above.
SMILES	NPR1 antag
Cc1ccsc1C(=O)C1CCCN(Cc2ccc(OC(C)C)c(CO)c2)C1 (stereo unspecified)	-7%
COCc1nc(CCNC(=O)CCCc2nc(-c3ccc(C)cc3)no2)no1	-17%
O=C(Cc1cccc(F)c1)Nc1cccc(-c2nnc3n2CCCC3)c1	-11%

(list continues)
SMILES	NPR1 antag
CCN1CC(c2ccccc2)CC2(CCN(C(=O)Nc3ccccc3)CC2)C1 (stereo unspecified)	-2%
CC1CCN(C(=O)C[C@@H]2c3nc(NC(=O)c4cccc(F)c4)sc3C[C@@H]3[C@](C)(CO)[C@H](O)CC[C@]32C)CC1	-17%
COc1ccc(CCN2CCC(CN(C)Cc3ccc(C#CCCO)cc3)CC2)cc1	-15%
CC(C)CNC(=O)c1ccnc(-c2nnc3ccc(N4CCN(C)CC4)nn23)c1	2%[70.6 µM]
COc1ccc(NC(=O)c2c(C)oc3ccn(Cc4cccc(F)c4)c(=O)c23)cc1F	-4%
O=C(NCc1cc(F)ccc1F)C1CCN(C(=O)c2ncn3c2COC(c2ccc(F)cc2)C3)CC1 (stereo unspecified)	0%
O=C1NCCOCCCN(S(=O)(=O)c2ccc3c(c2)OCCO3)[C@H]2CCC[C@@H]12	-1%
NC(=O)[C@@H](Cc1ccccc1)NC(=O)[C@@]1(O)C[C@@H](O)[C@H](O)[C@@H](NC(=O)c2cccnc2)C1	-5%
COc1cccc(CC(=O)N2CCCC3(C2)NC(=O)N(Cc2cccc(Cl)c2)C3=O)c1 (stereo unspecified)	7%
Cc1ccccc1CNC(=O)c1ccc2c(c1)N(C)C1CCCN1C2=O (stereo unspecified)	1%
COc1ncccc1CNC[C@H]1COCc2nc3cc(C(F)(F)F)ccc3n21	1%[70.6 µM]
COCCCNC(=O)CCCN1C(=O)COc2ccc(C(=O)COc3cc(C)ccc3C)cc21	-13%
COc1ccc(CNC(=O)[C@@H]2CCC[C@@H](NC(=O)C3CCOCC3)CN(C)C(=O)C2)cc1	0%
F[C@@H]1CN(Cc2nccs2)C[C@@H]1OCc1nc2ccccc2o1	0%[70.6 µM]
COC(=O)[C@H](NC(=O)[C@@H]1C[C@H](NC(=O)Nc2ccc(OC)cc2)CN1C(=O)C=C(C)C)C(C)C	-1%
Cn1nccc1C(=O)N1CC[C@H]2C(=O)NCCCCCCN(Cc3ccncc3)[C@@H]2C1	-5%
O=C(Cc1cccc(F)c1)N1CCC(Oc2ccccc2)C1 (stereo unspecified)	?
CN(C)c1nc2c(c(=O)[nH]1)CCN(C(=O)C(c1ccccc1)C1CCCC1)C2 (stereo unspecified)	0%
COc1ccc2[nH]c3c(c2c1)CCNC31CCN(C(=O)c2ccoc2)CC1	-5%
O=C(NCCOc1ccccc1)C1CN(c2ccc(Cl)cc2)C(=O)N1 (stereo unspecified)	-1%
CN(C(=O)c1ccccc1F)C1CCc2ccccc21 (stereo unspecified)	0%[70.6 µM]
CC(=O)N1CCC([C@@H]2CN(C3CCN(CC(C)C)CC3)C[C@H]2CO)CC1	5%
O=C1NC(C(=O)NCc2cccc(F)c2)Cn2cccc21 (stereo unspecified)	0%
C#CCNC(=O)C[C@@H]1O[C@H](CNC(=O)c2ccco2)[C@@H](O)[C@H]1O	-6%[70.6 µM]
CN(CC1CCOC1)C(=O)Nc1cc(F)ccc1F (stereo unspecified)	0%
COc1ccccc1C(=O)N1CCCC1c1noc(COc2ccc(F)cc2)n1 (stereo unspecified)	4%
Cn1ccnc1CNC(=O)C[C@@H]1C[C@H]2O[C@H](CN)[C@@H](O)[C@H]2O1	1%[70.6 µM]
CCCN(CCC)C(=O)[C@@]12CCCC[C@H]1N(CCC(C)C)C(=O)CC2	-9%
Cc1cc(C)n(CC(=O)N2CCCn3ccnc3C2c2cnn(C)c2)n1 (stereo unspecified)	-13%
COc1ccc(C2(C(=O)N3c4ccccc4CC3c3noc(C4CCOCC4)n3)CC2)cc1 (stereo unspecified)	-4%
Cc1noc([C@@H]2CN(Cc3cc(F)ccc3F)C[C@H]2CO)n1	3%
CO[C@@H]1COCC[C@H]1NC(=O)c1ccc(CSc2ccccn2)cc1	1%
COCc1cc(C[C@@H]2CC[C@H](O)[C@@H](CN(C(=O)Nc3ccc(OC)cc3)C(=O)Nc3ccc(OC)cc3)O2)no1	-1%
CC(C)(C)CC(=O)N1CCC2(CC1)C(=O)N(CC(=O)Nc1ccc(F)cc1)CN2c1ccccc1	-1%
COc1ccc(NC(=O)N2CCC3(CC2)CC(N(C(C)=O)C2CC2)CCO3)cc1 (stereo unspecified)	-12%
CCN(CC)C(CNc1nc(CCN)nc2ccccc12)c1ccco1 (stereo unspecified)	1%
Cc1ccc(C(=O)N2C[C@H](c3nc(-c4cccnc4)no3)[C@@H](C)C2)c(C)c1	-15%
O=C(c1ccncc1)N1CCC(N2C(=O)C(OCC3CC3)C23CCCCC3)CC1 (stereo unspecified)	6%
O=C(c1cccs1)N1CCC2(CC1)CC(N(Cc1ccc(F)cc1)C1CC1)CCO2 (stereo unspecified)	-21%
Cc1cn2nnc(C(=O)Nc3ccc(C)c(C)c3)c2c(=O)[nH]1	20%
CC(C)c1noc(-c2cccn3c(CNC(=O)Cc4cccc(F)c4)nnc23)n1	7%
COc1ccccc1NC(=O)Cn1c(N2CCc3ccccc3C2)nc(C)cc1=O	-23%
CC(C)CN(CC1CN(C(=O)COc2ccccc2)CCO1)C(=O)c1ccc(F)cc1 (stereo unspecified)	-12%
CCN1c2cc(C(=O)Nc3cccc(C(F)(F)F)c3)ccc2C(=O)N2CCCCC21 (stereo unspecified)	0%
CC(C)C(Oc1ccccc1)C(=O)N1CCc2c(ncnc2N(C)C)C1 (stereo unspecified)	-13%
COCCn1ncc(N2CCCC(CC(=O)Nc3cc(OC)cc(OC)c3)C2)cc1=O (stereo unspecified)	-6%
Cc1ccccc1CN1CCC(CN(Cc2cccnc2)C(=O)Cc2ccccc2)CC1	1%
CN(Cc1ccccc1)C(=O)C[C@@H]1O[C@H](CNCc2ccc(F)cc2)[C@@H](O)[C@H]1O	3%[70.6 µM]
COCC1(C(=O)N2CCN(c3nccc(N)n3)CC(O)C2)CC1 (stereo unspecified)	15%
Cc1ccc(C(=O)NC[C@H]2O[C@@H](CC(=O)N3CCCC3)[C@H](O)[C@@H]2O)cc1	-1%[70.6 µM]
COCCC(=O)N[C@H]1C[C@@H](c2nc(-c3cnccn3)no2)N(C)C1	4%[70.6 µM]
O=C(C1CCCC1)N1CCCC(Cc2nc(C3CCOCC3)no2)C1 (stereo unspecified)	1%
COc1cccc(-c2cn3c(n2)N(C(=O)C2CCCC2)CCC3)c1	-11%
CN(Cc1ccccc1)C(=O)C[C@@H]1O[C@H](CNC(=O)c2ccccc2)[C@@H](O)[C@H]1O	-2%[70.6 µM]
CCN1c2cc(C(=O)NCc3ccc(OC)cc3OC)ccc2C(=O)N2CCCCCC21 (stereo unspecified)	0%
O=C(NC1C[C@H]2CC[C@@H](C1)N2C(=O)Cc1ccsc1)c1ccncc1 (stereo partly specified)	2%
O=C1CC(c2noc(-c3cccc(F)c3)n2)CN1C1CCCCC1 (stereo unspecified)	1%
CCn1nc(C)c(CCNC(=O)C2CCC(=O)N(C3CCCC3)C2)c1C (stereo unspecified)	2%
CN(C)C[C@@H]1CN(c2ncccn2)C[C@H]1NC(=O)Cc1cccc(Cl)c1	-2%
N#Cc1nccnc1N1CCN(C2CCC3(CCNCC3)CC2)CC1	3%
Cc1ccc(-n2c(C3CCN(C(=O)c4ccc5cc[nH]c5c4)CC3)n[nH]c2=O)cc1	2%
CCOCc1nc(C2CCCN(C(=O)Nc3cccc(F)c3C)C2)no1 (stereo unspecified)	-24%
